# gsp agonist – agonists of gsp mutant (McCune-Albright syndrome); gsp mutant cells, cAMP HTRF, 30 min; control for the full effect not named in the record; 0.13% of 340,000 active; Potency, µM (top dose mostly 76.9 µM), inactives show at the highest dose activation (cAMP increase), most hits filed as activators; active = well fitted activation curve with a large enough effect; inconclusive = small, poorly fitted or top-dose-only effect, or another doubt; inactive = no such curve, though single readings can be large or run the other way; cell line not stated here;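 also: phosphodiesterase inhibitor Ro 20-1724 added with compounds to block cAMP breakdown; potency is read from the fitted curve at half-maximal effect; nearly all actives have a fitted effect of over 60% in size; about a fifth of the inactives were tested at one dose only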
#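 Cells in DMEM/10% FBS with G418 were pretreated with compounds in DMSO plus […] (300 uM stock) for 30 min at 37C. cAMP was measured by HTRF (cAMP-d2 plus anti-cAMP antibody-K) after 30 min at room temperature.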
# Menin MLL FP FL – displaces fluorescein MLL peptide from human menin; Fluorescence polarization, fluorescein-MLL peptide displacement from menin; FP activity change, % at 61.4 µM; 290,000 tested, under 10 active; AID 1766; inconclusive = falling polarisation curve, or a change in total fluorescence; inactive = total fluorescence flat and polarisation flat or rising; no compound was filed as active; the % refers to the polarisation; negative = inhibition;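 also: % of control where 0% means no effect; inhibitors lower the polarisation; unlabelled MLL peptide was the positive control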
# TRPML1 agonist – human mucolipin-1 channel agonism | TRPML1-expressing cells, Ca2+ dye fluorescence, FDSS; host cell line not named in the record; reference of the full effect not given here | activation, % (test concentration not listed) | 0.12% of 410,000 active; in the data active = activation above about 50%; inconclusive = about 30% to 50%; inactive = below about 30%; also: 0% is about no effect; the text of the record puts the active cut at 80%
# Target sequence (Q9GZU1 whole entry, looked up): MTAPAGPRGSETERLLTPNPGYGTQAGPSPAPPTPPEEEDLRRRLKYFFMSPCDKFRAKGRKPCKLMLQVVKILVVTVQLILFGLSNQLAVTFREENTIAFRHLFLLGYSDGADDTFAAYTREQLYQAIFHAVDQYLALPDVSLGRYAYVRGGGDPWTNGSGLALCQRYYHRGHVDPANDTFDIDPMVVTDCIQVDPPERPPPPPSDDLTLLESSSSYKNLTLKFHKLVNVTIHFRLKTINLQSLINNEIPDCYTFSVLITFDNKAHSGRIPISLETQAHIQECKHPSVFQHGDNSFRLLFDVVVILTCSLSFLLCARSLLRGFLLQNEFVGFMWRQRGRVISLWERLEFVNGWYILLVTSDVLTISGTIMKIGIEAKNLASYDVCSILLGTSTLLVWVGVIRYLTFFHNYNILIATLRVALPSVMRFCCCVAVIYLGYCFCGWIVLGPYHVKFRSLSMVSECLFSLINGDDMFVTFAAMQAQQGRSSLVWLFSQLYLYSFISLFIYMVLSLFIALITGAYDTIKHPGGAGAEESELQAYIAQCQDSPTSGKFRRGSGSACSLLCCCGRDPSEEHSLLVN
#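 TRPML1-DL cells, Tet-induced overnight (~16 h, 37 degrees C), loaded 45-90 min at room temperature with Ca8 no-wash calcium dye plus quencher. FDSS fluorescence: 10 s baseline, compound pin-transfer, 110 s agonist read, then EC80 54-4 (4uM final) and 110 s antagonist read.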
# gsp antagonist – gsp mutant antagonism; gsp-mutant cells, cAMP HTRF, 30 min; control for the full effect not named in the record; Potency, µM (top dose mostly 76.9 µM), for inactives: top-dose activity change, negative = inhibition, hits mostly inhibitors; 0.4% of 340,000 active; AID 624288; active = falling curve of any shape with a large fitted effect; inconclusive = falling curve, mostly with a smaller effect; inactive = flat or rising curve; cell line not stated here;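 also: intracellular cAMP measured with PDE inhibitor Ro 20-1724 present during compound exposure; potency is read from the fitted curve at half-maximal effect; % is scaled to controls: 0 for no effect and ±100 for the full control effect; nearly all actives have a fitted effect of over 65% in size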
#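 G418-selected cells were plated in DMEM/10% FBS for 16-24 h at 37C, then treated with compounds plus the PDE inhibitor […] (300 uM solution added) for 30 min at 37C. Intracellular cAMP was measured by HTRF after 30 min lysis at room temperature.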
# ClpP mod – qHTS Assay for Activators of ClpP; Potency, µM (highest dose often 57.5 µM), for inactives: at the top dose activity change, negative = active; ATP-dependent Clp protease proteolytic subunit (Bacillus subtilis (strain 168)), P80244; 1.9% of 340,000 active; purified B. subtilis ClpP, FRET peptide cleavage, 20 min; active = well fitted falling curve with a large enough effect; inconclusive = small, poorly fitted or top-dose-only effect; inactive = no such curve, though single readings can be large or run the other way; also: potency is read from the fitted curve at half-maximal effect; the source files actives as falling curves though it sought activators and does not explain the sign; nearly all actives have a fitted effect of over 65% in size; many hits overshoot -100%
# Target sequence (P80244 whole entry, looked up): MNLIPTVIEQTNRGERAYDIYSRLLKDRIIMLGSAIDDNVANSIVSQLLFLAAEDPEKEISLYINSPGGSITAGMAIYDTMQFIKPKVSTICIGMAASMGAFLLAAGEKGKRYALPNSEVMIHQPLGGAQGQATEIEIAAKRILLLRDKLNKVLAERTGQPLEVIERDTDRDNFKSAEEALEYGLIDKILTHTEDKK
#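 Purified B. subtilis ClpP, 10 microg/mL final in Tris/HCl pH8 with KCl, BSA, glycerol and Tween-20, cleaved an Abz/nitrotyrosine-quenched decapeptide. Fluorescence (ex 320, em 430) was read at 0 and 20 min at room temperature. Delta was normalized to 5.8 microM ADEP and DMSO/no-enzyme controls.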
# TRPML1 blocker – blocks the human TRPML1 channel | TRPML1-inducible cells, Ca2+ dye fluorescence, FDSS; active compounds read low; inhibition of EC80 agonist-evoked calcium signal | activity change, negative = inhibition, % (no concentration beside the values) | 0.02% of 390,000 active; in the data active means activity change below about -50%; inconclusive means about -30% to -50%; inactive means above about -30%;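 also: stimulus is agonist 54-4 at its EC80 concentration; % is scaled to controls: 0 for no effect and ±100 for the full control effect; compound concentration not given in the record; the text of the record puts the active cut at -80%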
#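 Tet-induced TRPML1-DL cells loaded with Ca8 no-wash calcium dye were read kinetically on FDSS. Compound addition was followed by EC80 agonist 54-4 (4 uM final); inhibition was read over 110 s.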
# * hit, by the source's call; ? = inconclusive; nt = no result given; & = joins results of further samples; [ ] = remark or other dose.
Molecule	gsp agonist	Menin MLL FP FL	TRPML1 agonist	gsp antagonist	ClpP mod	TRPML1 blocker
C=CCNC(=O)c1ccc2c(=O)n(Cc3ccccc3OC)c(=S)[nH]c2c1	1%	-1.8	-0.5	-3%	0.5%	-16
O=C(CSc1nc2ccccc2c(=O)n1-c1ccccc1)NCc1ccco1	0%	6.4	0.9	0%	-1.4%	-15
CC(=O)C1=C(c2ccc(F)cc2)N(C(C)=O)n2c(nnc2C2CCCCC2)S1	nt	nt	3.0	nt	1.1%	-5
CC(NC(=O)C1CCN(C(=O)[C@@H]2Cc3ccccc3CN2C(=O)OC(C)(C)C)CC1)c1ccccc1 (stereo partly drawn)	23%	-1.7	-0.8	-1%	-5.0%	7
CCOC(=O)C(Oc1ccc(=O)n(-c2ccccc2)n1)C(C)=O (stereo not drawn)	-19%	1.4	1.1	-11%	1.5%	6
O=C(O)c1cccc(Nc2ncnc3sccc23)c1	-16%[15.4 µM]	4.6	-0.4	0%	nt	-3
CCOc1ccccc1NC(=O)CCn1nc(C)c(S(=O)(=O)N2CCCCC2)c1C	-2%	-0.1	-1.1&2.3	6%	-1.4%&-3.7%	-12&-5
O=C(CCn1c(=O)oc2ccccc21)Nc1cccc([N+](=O)[O-])c1	-11%	nt	0.0	-6%	1.6%	-17
CN(C(=O)c1ccc2c(c1)S(=O)(=O)N=C1CCCCCN12)c1ccccc1	-35%[15.4 µM]	nt	2.3	7%	nt	4
COC(=O)[C@]1(C)CCC[C@@]2(C)C3CC[C@]4(OC(C)=O)C[C@@]3(CCC21)CC4=O (stereo partly drawn)	nt	nt	0.5	-9%	-3.7%	86
CN(C)CCNC(=O)c1cc2c(s1)-c1ccccc1OC2	0%	4.0	-0.5	13%	5.0%	-9
Cc1c(C(=O)N2CCc3ccccc3C2)oc2ccccc12	6%	nt	2.0	-9%	-2.5%	7

# Further entries follow:
Molecule	gsp agonist	Menin MLL FP FL	TRPML1 agonist	gsp antagonist	ClpP mod	TRPML1 blocker
CC(C)(C)c1ccc(OCC(=O)N/N=C/C2CC=CCC2)cc1 (stereo not drawn)	2%[15.4 µM]	1.0	-0.4	2%	-0.5%	3
CC(=O)OCC(=O)[C@@]1(O)CC[C@H]2[C@@H]3CCC4=CC(=O)C=C[C@]4(C)[C@H]3[C@@H](O)C[C@@]21C	nt	-0.1	-0.3	-10%	2.0%	3
Cc1ccc(C)c(/C(O)=C2/C(=O)C(=O)N(CCN3CCOCC3)C2c2ccco2)c1 (stereo not drawn)	-4%	0.0	-0.3	11%	-0.6%	11
COc1ccc(/C=C2\CCCC3C2=NN(C(=O)c2scnc2C)C3c2ccc(OC)c(OC)c2)cc1OC (stereo not drawn)	-20%	-1.4	1.3	-24%	-21%	9
CC1=C(C(=O)OCc2ccccc2)C(c2cccc(Cl)c2Cl)NC(=O)N1CCCCCC(=O)O (stereo not drawn)	nt	2.3	-0.9	-17%	1.7%	16
COc1ccc(S(=O)(=O)N(C)c2ccc(C(=O)Nc3cccnc3)cc2)cc1OC	-5%[15.4 µM]	nt	-0.6	9%	0.8%	5
CCc1ccc(Nc2n[n+](C)c(-c3ccncc3)s2)cc1	nt	0.2	-0.1	?	-2.0%	50
CCCCCCn1c(CN2CCCCC2C)nc2c1c(=O)n(C)c(=O)n2C (stereo not drawn)	3%	-1.2	-0.5	0%	-3.6%	-3
CCN1C(=O)[C@H]2[C@@H](c3ccc(C)cc3)N3C(=O)N(c4cccc(F)c4)C(=O)[C@@]3(C)[C@H]2C1=O	nt	2.5	1.1	7%	-0.5%	-6
COc1ccc(CNCCC(c2ccccc2)C2CCOC(C)(C)C2)cc1 (stereo not drawn)	2%[15.4 µM]	4.5	2.0	-27%	nt	67
O=[N+]([O-])c1cccc2ncccc12	25%	-1.5	nt	1%	-1.6%	nt
Cc1ccc2c(c1)/C(=N/OC(=O)c1ccc(F)cc1)CCS2	?	6.0	0.4	-8%	9.9%	3

# Looked up one by one from the entries so far:
Molecule	gsp agonist	Menin MLL FP FL	TRPML1 agonist	gsp antagonist	ClpP mod	TRPML1 blocker
COc1ccc(S(=O)(=O)N(C)c2ccc(C(=O)Nc3cccnc3)cc2)cc1OC	-5%[15.4 µM]	nt	-0.6	9%	0.8%	5
CC(C)(C)c1ccc(OCC(=O)N/N=C/C2CC=CCC2)cc1 (stereo not drawn)	2%[15.4 µM]	1.0	-0.4	2%	-0.5%	3
Cc1ccc2c(c1)/C(=N/OC(=O)c1ccc(F)cc1)CCS2	?	6.0	0.4	-8%	9.9%	3
Cc1ccc(C)c(/C(O)=C2/C(=O)C(=O)N(CCN3CCOCC3)C2c2ccco2)c1 (stereo not drawn)	-4%	0.0	-0.3	11%	-0.6%	11

# Next section.
Molecule	gsp agonist	Menin MLL FP FL	TRPML1 agonist	gsp antagonist	ClpP mod	TRPML1 blocker
O=C(c1ccc2c(=O)n(CCc3ccccc3)c(=O)[nH]c2c1)N1CCN(c2ccc(Cl)cc2)CC1	nt	nt	-0.3	nt	-2.0%	35
CCCCOc1ccc(Cl)cc1CSc1nncn1N	-4%	1.1	0.5	0%	-0.6%	3
Cc1ccc(S(=O)(=O)N2CCCC2)cc1C(=O)NCC(C)(C)N1CCOCC1	-10%	nt	0.0	-9%	0.6%	-1
NCCNc1ccc([N+](=O)[O-])c(Sc2nc3ccccc3[nH]2)c1	7%	3.9	1.4	6%	-4.1%	8
CCOc1ccc(C2c3c(-c4ccccc4O)n[nH]c3C(=O)N2Cc2cccnc2)cc1OC (stereo not drawn)	nt	nt	-1.1	nt	-0.3%	17
CCc1ccc(S(=O)(=O)/N=C2\C=C(Nc3ccc(O)cc3)C(=O)c3ccccc32)cc1	-16%[15.4 µM]	-7.9	2.6	-15%	nt	-11
COc1cccc(CNC(=O)CCC2CCCN(C(=O)c3ccc(OC)c(F)c3)C2)c1 (stereo not drawn)	-2%	2.6	1.0	-4%	-0.7%	20
CC1CC(=O)Nc2ccccc2N1C(=O)CSc1nnnn1C (stereo not drawn)	6%[15.4 µM]	nt	-0.5	6%	0.4%	13
Cc1onc(-c2ccccc2)c1C(=O)NC(=S)NNC(=O)c1cc(-c2ccc(F)cc2)n[nH]1	-3%[15.4 µM]	3.9	2.1	-19%	nt	15
Cc1cc(OCCCCn2ccnc2)cc(C)c1Cl	-14%[15.4 µM]	4.5	-0.3	8%	nt	-1
C/C(=N\O)c1ccc2c3ccccc3n(C)c2c1	0%	-5.3	0.0	-18%	?	-11
CNc1n[nH]c(=S)s1	-6%[15.4 µM]	0.7	0.1	-20%	1.3%	-2

# New compounds follow.
Molecule	gsp agonist	Menin MLL FP FL	TRPML1 agonist	gsp antagonist	ClpP mod	TRPML1 blocker
O=C(O)c1ccccc1/C=N/Nc1ccc(S(=O)(=O)N2CCOCC2)cc1[N+](=O)[O-]	-23%	-0.8	1.1	-1%	0.7%	-2
O=C(NCc1ccccc1)C(c1ccccc1)N(C(=O)c1csnn1)C1CCCC1 (stereo not drawn)	-5%[15.4 µM]	nt	1.8	-8%	-3.2%	1
CCCN(CC(=O)Nc1cc(Cl)ccc1Cl)C(=O)CN1C(=O)C2CCCCC2C1=O (stereo not drawn)	-24%	nt	-0.1	-15%	1.2%	15
O=C(/C=C/c1cc([N+](=O)[O-])ccc1OC(F)F)Nc1cccc2ccccc12	-10%	0.7	-0.3	4%	4.0%	-7
Cc1ccc(NC(=O)COC(=O)Cc2c[nH]c3ccccc23)cc1C	-39%[inhibitor]	nt	-0.8	2%	-0.1%	-8
O=C(NCc1nc2ccccc2[nH]1)c1cccs1	-39%[inhibitor]	-1.8	0.0	7%	-0.8%	-11
Cc1c(Cl)cccc1NC(=O)CC1SC(=NCC2CCCO2)NC1=O (stereo not drawn)	-35%[inhibitor]	-0.5	0.7	14%	-0.5%	15
Cc1[nH]n(-c2ccc([N+](=O)[O-])cc2)c(=O)c1C=NCCc1c(C)[nH]c2ccccc12	9%	7.2	3.9	-20%	-3.5%	7
CC1=NN(C(=O)c2ccc(Cn3ccc([N+](=O)[O-])n3)cc2)C(O)(C(F)(F)F)C1 (stereo not drawn)	3%	3.1	0.2	11%	1.4%	12
O=C(COC(=O)c1ccc(Cl)c(S(=O)(=O)N2CCCCCC2)c1)Nc1ccccc1	-7%	-2.0	1.9	-16%	-2.1%	24
COc1cccc(C(=O)N2CCc3cc(OC)c(OC)cc3C2COc2ccc3c(C)cc(=O)oc3c2)c1 (stereo not drawn)	nt	nt	-1.3	nt	2.5%	-11
COc1ccc(N(C(=O)CCC(=O)Nc2cc(C)on2)C(C(=O)NC2CCCC2)c2ccco2)cc1 (stereo not drawn)	-1%[15.4 µM]	-0.1	-0.3	-5%	nt	-9

# (further entries)
Molecule	gsp agonist	Menin MLL FP FL	TRPML1 agonist	gsp antagonist	ClpP mod	TRPML1 blocker
C=CCn1c(N)cc(=O)nc1SCC(=O)Nc1ccc(C(=O)OC)cc1	-1%[15.4 µM]	nt	-0.3	7%	1.9%	22
COc1cc(C(=O)NC2CCN(Cc3ccccc3)CC2)cc(Cl)c1OC(C)C	29%[15.4 µM]	2.7	-0.3	8%	nt	-13
O=C(CCn1cnc(-c2ccccc2)c1-c1ccccc1)N/N=C/c1ccc(O)cc1	?	8.0	2.5	-8%	-1.3%	-8
Cc1ccccc1C1NC(=O)Cc2ccccc21 (stereo not drawn)	11%	5.4	-0.8	-3%	-2.0%	-13
COc1cc(NC(=O)c2cccc3c(-c4cnn(C)c4)coc23)cc(OC)c1OC	nt	nt	1.7	nt	-18%	1
O=C(CC(=O)c1ccccc1O)c1ccc(F)cc1	?	7.7	-0.2	40µM*	2.3%	-2
CCCCC(O)(c1ccc(F)cc1)C(CN1CCOCC1)c1ccc(Cl)cc1 (stereo not drawn)	-25%	1.2	nt	-8%	1.4%	nt
COc1ccc(/C=N/NC(=O)c2cccnc2)cc1O	2%[15.4 µM]	6.0	0.1	5%	0.8%	-8
Cc1cccc(C(=O)Nc2ccc(C(=O)/C=C/c3cccnc3)cc2)c1	-31%[inhibitor]	7.4	0.7	-17%	6.8%	-20
Cc1ccc(-c2c(C(=O)N/N=C/C3CC=CCC3)nnn2-c2nonc2N)cc1 (stereo not drawn)	-2%	nt	0.0	-1%	-3.0%	2
Cc1ccc(Nc2cc(=O)[nH]c(=O)[nH]2)cc1Cl	-30%[inhibitor]	-5.7	1.0	-7%	-1.7%	-13
CC(C)c1c(O)nc(SCC(=O)N2CCCCC2)[nH]c1=O	-2%	11	0.8	15%	1.6%	1
CC(C)(C)NC(=O)COC(=O)c1ccc(Cl)cc1O	?	-1.1	-0.3	-1%	nt	1
Fc1cccc(CCN2CCNC[C@@H]2CC2CCCCC2)c1	nt	nt	-0.1	9%	-0.2%	3

# Outcome played no part in choosing rows. About 2.1% of those tested had a hit in this group.
